High-throughput results as filed in PubChem.
Rce1 inh: yeast Ras-converting enzyme inhibition; AID 2563; yeast membranes, quenched prenylated peptide cleavage fluorescence; actives 0.27% (n = 290,000); calls only;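 active means fall in fluorescence gain of 50% or more versus controls, with final raw signal at or below 3038400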;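 further: plate controls were neutral control wells for no effect and wells lacking membranes for full effect; tested at 10 µM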
Target sequence (Q03530 whole entry, looked up): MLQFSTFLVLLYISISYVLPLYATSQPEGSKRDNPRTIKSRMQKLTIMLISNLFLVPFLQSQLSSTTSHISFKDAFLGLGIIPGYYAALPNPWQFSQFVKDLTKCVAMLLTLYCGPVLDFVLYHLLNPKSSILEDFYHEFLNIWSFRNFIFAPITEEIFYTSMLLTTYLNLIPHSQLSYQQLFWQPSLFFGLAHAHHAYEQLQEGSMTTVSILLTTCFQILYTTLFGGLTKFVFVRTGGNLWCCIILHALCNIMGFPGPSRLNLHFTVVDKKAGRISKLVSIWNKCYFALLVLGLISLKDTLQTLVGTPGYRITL
Env fusion inh: blocks HIV Env-driven cell-cell fusion; inhibition, % at 12.3 µM; HeLa-JRFL Env/CEM21 cell fusion, luciferase; actives 1.1% (n = 360,000);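 active means mean replicate inhibition score of at least 50 and every replicate individually at or above 50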;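 further: 0% = plate neutral controls and 100% = maraviroc near 300 nM; one replicate is shown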
eIF4H FP inh: inhibitors of RNA binding by human eIF4H | eIF4H fluorescence polarization binding assay | inhibition, % at 35 µM | actives 0.94% (n = 290,000) | AID 2012;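 active means 50% or more with normal probe brightness, or confirmed in later tests; about a fifth of its hits are not listed in these tables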;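 further: calls also rest on retests at 20 µM and on dose response follow-up; 0% = protein and probe with vehicle and 100% = probe without protein; strong numbers were not always called active; many hits fall short of the cut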
Yeast UUG start: alters start codon recognition fidelity in yeast. S. cerevisiae UUG-firefly luciferase reporter, luminescence/redox ratio. activity score, % at 18.7 µM. actives 0.13% (n = 350,000). AID 602363;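 active means replicate mean at a twofold rise or more, about +100% in these data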;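 further: firefly luciferase made from a UUG start codon reports start codon fidelity; reporter light over untreated wells divided by growth signal over untreated wells; some hits fall short of that in this replicate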
PABP FP inh: PABP-poly(A) binding inhibition; P11940; PABP-poly(A) RNA binding, fluorescence polarization; inhibition, % at 35 µM; actives 1% (n = 290,000);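 active means 50% or more with normal probe brightness, or confirmed in later tests; about a fifth of its hits are not listed in these tables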;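 further: calls also rest on retests at 20 µM and on dose response follow-up; controls were probe without protein and protein plus probe with vehicle; some compounds called inactive have numbers as strong as hits; many hits fall short of the cut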
Target sequence (P11940 whole entry, looked up): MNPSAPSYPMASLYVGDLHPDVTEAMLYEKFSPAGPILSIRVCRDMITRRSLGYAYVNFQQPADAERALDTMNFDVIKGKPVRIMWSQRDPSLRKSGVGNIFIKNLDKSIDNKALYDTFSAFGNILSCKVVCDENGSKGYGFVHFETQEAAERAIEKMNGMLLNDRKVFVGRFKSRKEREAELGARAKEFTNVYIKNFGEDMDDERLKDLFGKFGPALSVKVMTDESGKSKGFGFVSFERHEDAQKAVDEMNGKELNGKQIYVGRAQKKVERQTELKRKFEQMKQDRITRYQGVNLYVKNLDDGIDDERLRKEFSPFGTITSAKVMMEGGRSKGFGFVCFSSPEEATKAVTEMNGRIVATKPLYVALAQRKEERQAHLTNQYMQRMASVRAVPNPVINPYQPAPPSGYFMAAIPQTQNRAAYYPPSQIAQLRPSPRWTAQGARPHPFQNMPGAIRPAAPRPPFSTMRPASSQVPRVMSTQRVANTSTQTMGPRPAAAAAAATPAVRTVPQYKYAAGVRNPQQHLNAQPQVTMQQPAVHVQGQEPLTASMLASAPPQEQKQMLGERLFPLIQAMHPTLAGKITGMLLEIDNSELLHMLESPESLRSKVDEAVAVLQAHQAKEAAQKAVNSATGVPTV
CSC inhib: blocks cancer stem cells; cancer stem cell-like cells viability, luminescence; inhibition, % at 7.5 µM; actives 1.1% (n = 300,000);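 active means mean at 75% or more and at least half the replicates too; tested in HMLE shEcad cells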;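 further: 0% = median of negative and 100% = median of positive control wells; the first replicate is given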
MT1-MMP act inh: MT1-MMP (human) activation inhibition; P50281; GFP/RFP ratio change, % at 20 µM; actives 0.061% (n = 360,000); HT1080 RFP-PRO-GFP cells, GFP/RFP ratio fluorescence, overnight; percent of plate control window, DMSO zero; AID 651647;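 active means GFP/RFP ratio change of at least 30% with cell ATP level not reduced by more than half and red fluorescence within 50% of control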; further: strong numbers were not always called active
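Test system: HT1080 cells expressing an RFP-PRO-GFP fluorescent reporter construct / Compound dosing: single-point 20 µM compound, 1% DMSO / Schedule: cells overnight before dosing, compound overnight, 37 °C, 5% CO2 / Evaluation: GFP/RFP fluorescence ratio / Control set: DMSO and RFP-L50D-GFP cell wells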
MT1-MMP act inh RFP: also measured in MT1-MMP act inh; calls as there; RFP signal change, %; measured here: RFP expression control read;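 0 = vehicle wells; hits needed this value within 50% of zero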
* marks the source's active call; other numbers are inactive results; i = inactive; . = not tested or not shown; & = joins results of further samples; [ ] = remark or other dose.

The first 18 records (preview)
SMILES	Rce1 inh	Env fusion inh	eIF4H FP inh	Yeast UUG start	PABP FP inh	CSC inhib	MT1-MMP act inh	MT1-MMP act inh RFP
COc1ccc(C(=O)n2nc(C)c(Br)c2C)cc1	i	12	4	-12	0	2	5	9
COc1ccc(S(=O)(=O)N2CCC(C(=O)N3CCCCC3)CC2)cc1OC	.	14	-1	-13	-9	-13	1	-1
CSC1=NC2(C[C@H]2c2ccccc2)C(=O)N1C (stereo not given in full)	i	-3	.	-7	.	-2	3	3
CC1SCC(=O)N(CC(=O)NCc2ccccc2)C1=O (stereo not given)	.	-10	7	-12	-2	-3	1	0
Cc1ccc(SCC(=O)OCC(=O)NCc2cccs2)cc1	i	-1	.	1	.	-5	0	1
COc1ccc(NC(=O)c2ccc(CNc3c(NC4CCCCC4)c(=O)c3=O)cc2)c(OC)c1	i	15&-8	3	-5&-29	-3	4	-1&0	-5&-4
COc1ccccc1NC(=O)CN(c1ccc([N+](=O)[O-])cc1)S(=O)(=O)c1ccccc1	i	-18	-13	-5	-10	3	.	.
Cc1nc(NC(=O)c2ccccc2)sc1C1(C)CC(c2c(Cl)cccc2Cl)=NO1 (stereo not given)	i	2	7	-6	-2	.	4	-12
NS(=O)(=O)c1ccc(CNC(=O)/C=C/c2cccc([N+](=O)[O-])c2)cc1	i	8	-6	3	7	-12	1	1
CCOC(=O)CSc1cccc2cccnc12	i	.	31	-13	-10	37	5	3
COc1ccccc1C(=O)NNC(=O)CN1C(=O)c2ccccc2C1=O	i	8	0	-17	7	-5	-3	1
COc1ccc(Cn2cnc([N+](=O)[O-])c2)cc1[N+](=O)[O-]	i	-9	-4	-23	4	-20	-6	2
S=C(Nc1ccc(Br)cc1Cl)Nn1cnnc1	i	-3	-4	.	1	10	-1	0
Cc1cc(C)n(-c2nc3ccccc3nc2N2CCN(S(=O)(=O)c3ccc4ccccc4c3)CC2)n1	i	56*	-9	11	3	.	-24	-19
Cc1ccc(-c2csc3ncnc(N4CCN(Cc5ccccc5)CC4)c23)cc1	i	21	16	-6	-3	-18	1	-13
Cc1ccc(/C=C/C(=O)OCn2nnc3ccccc3c2=O)o1	i	2	8	-6	15	20	3	3
COc1n[nH]c(C(=O)Nc2nc3ccccc3s2)c1[N+](=O)[O-]	i	-7	-8	.	13	6	1	7
CC(C)c1ccc(C2NC(=S)NC3=C2C(=O)CC(C)(C)C3)cc1 (stereo not given)	i	-3	-10	.	-11	-2	1	1

This part in full, repeating the preview:
SMILES	Rce1 inh	Env fusion inh	eIF4H FP inh	Yeast UUG start	PABP FP inh	CSC inhib	MT1-MMP act inh	MT1-MMP act inh RFP
COc1ccc(C(=O)n2nc(C)c(Br)c2C)cc1	i	12	4	-12	0	2	5	9
COc1ccc(S(=O)(=O)N2CCC(C(=O)N3CCCCC3)CC2)cc1OC	.	14	-1	-13	-9	-13	1	-1
CSC1=NC2(C[C@H]2c2ccccc2)C(=O)N1C (stereo not given in full)	i	-3	.	-7	.	-2	3	3
CC1SCC(=O)N(CC(=O)NCc2ccccc2)C1=O (stereo not given)	.	-10	7	-12	-2	-3	1	0
Cc1ccc(SCC(=O)OCC(=O)NCc2cccs2)cc1	i	-1	.	1	.	-5	0	1
COc1ccc(NC(=O)c2ccc(CNc3c(NC4CCCCC4)c(=O)c3=O)cc2)c(OC)c1	i	15&-8	3	-5&-29	-3	4	-1&0	-5&-4
COc1ccccc1NC(=O)CN(c1ccc([N+](=O)[O-])cc1)S(=O)(=O)c1ccccc1	i	-18	-13	-5	-10	3	.	.
Cc1nc(NC(=O)c2ccccc2)sc1C1(C)CC(c2c(Cl)cccc2Cl)=NO1 (stereo not given)	i	2	7	-6	-2	.	4	-12
NS(=O)(=O)c1ccc(CNC(=O)/C=C/c2cccc([N+](=O)[O-])c2)cc1	i	8	-6	3	7	-12	1	1
CCOC(=O)CSc1cccc2cccnc12	i	.	31	-13	-10	37	5	3
COc1ccccc1C(=O)NNC(=O)CN1C(=O)c2ccccc2C1=O	i	8	0	-17	7	-5	-3	1
COc1ccc(Cn2cnc([N+](=O)[O-])c2)cc1[N+](=O)[O-]	i	-9	-4	-23	4	-20	-6	2
S=C(Nc1ccc(Br)cc1Cl)Nn1cnnc1	i	-3	-4	.	1	10	-1	0
Cc1cc(C)n(-c2nc3ccccc3nc2N2CCN(S(=O)(=O)c3ccc4ccccc4c3)CC2)n1	i	56*	-9	11	3	.	-24	-19
Cc1ccc(-c2csc3ncnc(N4CCN(Cc5ccccc5)CC4)c23)cc1	i	21	16	-6	-3	-18	1	-13
Cc1ccc(/C=C/C(=O)OCn2nnc3ccccc3c2=O)o1	i	2	8	-6	15	20	3	3
COc1n[nH]c(C(=O)Nc2nc3ccccc3s2)c1[N+](=O)[O-]	i	-7	-8	.	13	6	1	7
CC(C)c1ccc(C2NC(=S)NC3=C2C(=O)CC(C)(C)C3)cc1 (stereo not given)	i	-3	-10	.	-11	-2	1	1
O=C1NCCC/C1=N/Nc1cc(F)ccc1F	i	-14	-3	4	-8	-1	4	2
CS(=O)(=O)NN1C(=O)c2ccccc2NC1c1cccc(O)c1 (stereo not given)	i	8	-2	-23	-9	-3	-2	-1
O=C1c2ccccc2S(=O)(=O)N1CC1CC(c2ccccc2Cl)=NO1 (stereo not given)	i	-58	1	-18	0	-2	2	-2
O=C1CC(c2ccsc2)c2ccc3ccccc3c2N1 (stereo not given)	i	33	4	.	11	2	-1	-1
C=CCCC1CN(Cc2ccco2)S(=O)(=O)c2c(F)cccc2O1 (stereo not given)	.	-6	.	-19	.	.	-3	1
O=C(C[C@@H]1C/C=C\C[C@@H](NC(=O)OCC2c3ccccc3-c3ccccc32)C(=O)OC[C@@H](Cc2ccccc2)NC1=O)NCCO	.	16	.	-19	.	.	-1	-2
COc1ccc(NS(=O)(=O)c2cc(C(=O)O)ccc2C)cc1	i	.	-4	-20	-1	-7	5	4
The results go on:
SMILES	Rce1 inh	Env fusion inh	eIF4H FP inh	Yeast UUG start	PABP FP inh	CSC inhib	MT1-MMP act inh	MT1-MMP act inh RFP
COc1ccc(C(=O)c2oc3ccccc3c2NC(C)=O)cc1	i	0	-1	35	0	7	-3	-1
Cc1nnc(SCC(=O)c2c(N)n(Cc3ccccc3)c(=O)n(C)c2=O)n1C	i	14	0	-9	-22	50	2	3
Cc1cc(C)cc(C(=O)N2CCCCCC2)c1	.	-7	9	-1	1	-17	-11	1
Cc1cc(C)c(C=NNc2nc3c([nH]2)c(=O)n(C)c(=O)n3C)c(C)c1	.	17	.	-23	.	.	2	2
CCN(CC)Cc1oc(-c2ccccc2)cc1C(=O)O	i	-10	3	.	9	-5	-4	-1
COc1ccc(-n2c(=O)[nH]cc(C(=O)Nc3ccccc3)c2=O)cc1	i	-28	-4	1	-9	2	-6	-10
Cn1c2ccccc2c2nnc(SCC(N)=O)nc21	i	-60	8	-21	0	-12	2	2
Cc1cc(=O)[nH]c(SC/C=C/c2ccccc2)n1	i	-10	12	-11	2	7	1	0
C[C@@H](NC(=O)[C@@H]1Cc2ccccc2CN1C(=O)OC(C)(C)C)C(=O)NC1CCCC1	i	7	-4	-5	5	-15	-2	1
Cc1ocnc1C(=O)Nc1ccc(Cl)cc1	i	-69	3	-6	2	15	10	8
CCOc1ccc(NC(=O)CSc2nc3c(c(=O)n2C)SC(C)C3)cc1 (stereo not given)	.	35	1	-13	4	-1	1	-7
COCCCNC(=O)c1c(N)n(-c2ccc(S(N)(=O)=O)cc2)c2nc3ccccc3nc12	i	18	2	-7	-5	-12	-1	0
O=C(CNC(=O)c1ccc(Cl)cc1Cl)OCc1cn2cc(Br)ccc2n1	.	1	.	-10	.	-14	1	4
CCc1ccc(C2C(C#N)=C(N)Oc3cc(N)ccc32)cc1 (stereo not given)	i	-15	-7	18	2	40	-3	-6
N#Cc1c(/N=C/c2ccco2)sc2c1CCCCC2	i	-79	1	-14	0	-16	-2	8
O=C(c1ccc(Cl)c(S(=O)(=O)NCc2ccco2)c1)N1CCN(c2ccc(F)cc2)CC1	i	.	5	-2	5	-3	-2	-8
COC(=O)Cn1c(=O)cnc2ccccc21	i	.	-4	0	-6	-7	-10	2
CCS(=O)(=O)c1ccc2c(c1)N(S(=O)(=O)c1ccc(OC)cc1)CC(C(=O)O)O2 (stereo not given)	i	-24	-3	-7	3	-2	-4	-1
O=C(NCc1cccnc1)c1cc(C2CCCCN2C(=O)c2ccccc2)on1 (stereo not given)	.	-12	.	-17	.	.	0	2
CCOc1ccccc1NC(=O)/C(C#N)=C/c1c(C)nn(-c2ccccc2)c1Cl	i	29	-12	.	16	38	3	3
Cc1nc2nc(SCC(=O)NCCCN3CCCC3)nn2c(C)c1Cc1ccccc1Cl	.	12	-5	-1	1	3	1	3
C/C(=N\Nc1nc(-c2cc(C)ccc2C)cs1)c1cc2ccccc2oc1=O	i	-1	-4	-15	0	10	-1	2
CCCN1CCC(NC(=S)Nc2cccc(Cl)c2Cl)CC1	i	-13	7	-9	2	-7	1	-1
O=C(Cn1cnc(S(=O)(=O)N2CCCCC2)c1)Nc1ccc(OC(F)(F)F)cc1	i	0	-10	-5	-6	-5	1	0
CCc1nn(C(C)C(=O)NCc2cccc(OC)c2)c(=O)c2cc3occc3n12 (stereo not given)	i	7	-6	12	-3	12	1	6
Additional results.
SMILES	Rce1 inh	Env fusion inh	eIF4H FP inh	Yeast UUG start	PABP FP inh	CSC inhib	MT1-MMP act inh	MT1-MMP act inh RFP
Cc1ccc(NC(=O)c2nc[nH]c2C(=O)N(C)Cc2ccccc2)cc1	.	-35	.	-14	.	11	4	-5
CC12C(=O)N(CCC(=O)O)C(=O)C1C1C=CC2C1 (stereo not given)	i	.	-14	-11	-2	-14	3	1
OC(COc1ccc(Br)cc1)CN1CCN(c2ccccc2)CC1 (stereo not given)	i	8	5	-12	4	.	2	1
C[C@@H]1CN([C@@H](C)CO)C(=O)c2cc(NC(=O)C3CCCCC3)ccc2O[C@@H](C)CCCCO[C@@H]1CN(C)Cc1ccncc1	.	-44&25[16.7 µM]	.	-21&7	.	.	5	1
Cc1nnc(SCC(=O)NCc2ccc(Cl)cc2)[nH]c1=O	i	.	-6	-10	4	-14	-1	2
CC(C)(C)OC(=O)N1CCC[C@H]1c1nnc(SCc2c(Cl)cccc2Cl)o1	i	.	-12	12	-7	8	-1	-9
Cc1ccc(S(=O)(=O)n2nc(-n3c(C)ccc3C)c3c(F)cccc32)c2ccccc12	i	27	12	16	6	31	-4	-8
O=C(CSc1nnnn1-c1cccnc1)Nc1ccc(F)cc1F	i	0	-25	-5	-8	-23	2	1
CCN(CC)C(=O)[C@]1(c2ccccc2)C[C@@H]1CN	i	.	1	.	-4	-2	.	.
CCC(C)C1C(C#N)=C(N)OC2=C1C(=O)CC(C)(C)C2 (stereo not given)	i	11	4	-14	0	-8	-1	-1
O=C(Nc1nnc(SCC(=O)N2CCOCC2)s1)c1ccccc1Cl	i	.	4	-13	-3	-9	2	8

Compound profiles, from the list above. Screens in order: Rce1 inh | Env fusion inh | eIF4H FP inh | Yeast UUG start | PABP FP inh | CSC inhib | MT1-MMP act inh | MT1-MMP act inh RFP
CC(C)(C)OC(=O)N1CCC[C@H]1c1nnc(SCc2c(Cl)cccc2Cl)o1 as listed: i | . | -12 | 12 | -7 | 8 | -1 | -9
Cc1ccc(NC(=O)c2nc[nH]c2C(=O)N(C)Cc2ccccc2)cc1 as listed: . | -35 | . | -14 | . | 11 | 4 | -5
